# AID923 = qHTS Assay for Allosteric/Competitive Inhibitors of Caspase-1: Spectroscopic Profiling in AFC Spectral Region | compound fluorescence, AFC spectral region (405/520 nm); almost no hit is shown here | Potency, µM (doses to about 57.5 µM), for inactives: at the top dose fluorescence increase, usual class: activators | 1.1% of 75,000 active | AID 923, 2007; active = well fitted activation curve with a large enough effect; inconclusive = small, poorly fitted or top-dose-only effect;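 also: potency is read from the fitted curve at half-maximal effect; 0% is about no effect; scaled to a free AFC standard on each plate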
#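 Compound autofluorescence profiled at 405 nm ex/520 nm em during kinetic caspase 1 run (50 nM enzyme, 5 uM Ac-WEHD-AFC, HEPES pH 7.5, 10 mM DTT). Titration up to 57 uM; baseline from regression intercept, normalized to AFC standard curve.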
# A647 fluor = compound autofluorescence in A647 spectral region. Compound fluorescence, A647 channel (570/671 nm), Tris buffer. max dye-equivalent concentration, M. 59,000 tested, under 10 active. AID 592; active means above 1 µM dye equivalent; inconclusive means 0.1 to 1 µM; inactive means 0.1 µM or less;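 also: values scaled relative to a standard on each plate; highest value over a series up to 38 µM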
#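 Buffer was dispensed, compounds and Alexa 647 standards were pin-transferred, and plates sat 15 min at room temperature. Intensity at 570/671 nm was then converted to dye-equivalent concentration using the plate's A647 standard curve.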
# Resorufin fluor = compound fluoresces in the resorufin spectral region; Compound fluorescence, resorufin region 547/598 nm, buffer; active compounds read high; max dye-equivalent concentration, M; 0.04% of 59,000 active; active = above 10 nM dye equivalent; inconclusive = 1 to 10 nM; inactive = 1 nM or less; a few of its hits are not listed in these tables; also: highest value over a series up to 38 µM
#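 Dye-equivalent concentration values derive from comparing each well's 547/598 nm fluorescence against resorufin standards included on every plate. Incubation was 15 min at room temperature in 100 mM Tris, pH 8.0.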
# A488 fluor = A488 region autofluorescence; compound autofluorescence, A488 spectral region, dye equivalency; active compounds read high; AID 591; max dye equivalency, M; 0.1% of 59,000 active; active = above 10 nM dye equivalent; inconclusive = 1 to 10 nM; inactive = 1 nM or less; about half of its hits are not listed in these tables;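 also: highest value over a series up to 38 µM; compound alone in buffer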
#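 Read-out: relative fluorescence at 480/540 nm, expressed as Alexa 488 dye-equivalent concentration from a six-point A488 standard included per plate. Conditions: 100 mM Tris, pH 8.0; 15 min incubation, room temperature.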
# TSHR ag = activates the human thyroid stimulating hormone receptor | AID 926 | P16473 | Potency, µM (series often up to 57.1 µM), for the others: top-dose activation, actives largely listed as activators | HEK293-CNG-TSHR cells (CNG channel as cAMP sensor), membrane potential dye, cAMP | 0.48% of 73,000 active; active = well fitted activation curve of enough size with the parental cells flat; inconclusive = any curve in the parental cells; inactive = parental cells flat and receptor cells flat or falling; also: potency is read from the fitted curve at half-maximal effect; % of control where 0% means no effect; weak receptor curves with flat parental cells got no call and are not listed
# Target sequence (P16473 whole entry, looked up): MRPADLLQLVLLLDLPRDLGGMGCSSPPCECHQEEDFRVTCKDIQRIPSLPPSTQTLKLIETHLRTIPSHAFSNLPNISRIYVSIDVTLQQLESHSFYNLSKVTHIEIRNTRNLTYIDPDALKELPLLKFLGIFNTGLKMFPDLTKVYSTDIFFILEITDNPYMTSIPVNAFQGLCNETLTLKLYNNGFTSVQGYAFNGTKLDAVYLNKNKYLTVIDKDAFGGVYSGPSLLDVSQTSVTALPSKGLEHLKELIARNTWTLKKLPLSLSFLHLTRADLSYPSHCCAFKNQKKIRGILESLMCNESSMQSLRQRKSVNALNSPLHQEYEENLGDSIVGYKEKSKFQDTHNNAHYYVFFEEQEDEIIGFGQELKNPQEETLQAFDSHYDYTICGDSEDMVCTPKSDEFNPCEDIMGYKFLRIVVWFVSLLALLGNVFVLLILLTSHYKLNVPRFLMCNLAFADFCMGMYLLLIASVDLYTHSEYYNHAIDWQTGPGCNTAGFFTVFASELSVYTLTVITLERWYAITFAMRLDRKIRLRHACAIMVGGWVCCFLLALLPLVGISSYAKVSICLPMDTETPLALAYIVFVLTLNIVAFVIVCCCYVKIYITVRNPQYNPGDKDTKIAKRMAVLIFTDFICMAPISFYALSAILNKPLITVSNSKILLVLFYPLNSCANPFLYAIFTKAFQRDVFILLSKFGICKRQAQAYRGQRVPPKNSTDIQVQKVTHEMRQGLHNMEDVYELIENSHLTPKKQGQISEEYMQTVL
#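 cAMP rise detected as CNG-channel membrane depolarization by fluorescent dye (emission 590 nm), 30 min after compound, following 60 min dye loading containing 100 uM RO 20-1724 at room temperature. Cells: TSHR/CNG HEK 293, with parental CNG HEK 293 as control.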
# Numbers without * were called inactive; i = inactive; u = inconclusive; x = no result given; & = joins results of further samples; [ ] = dose if it differs, or a comment. The list is partial; the hit share may differ from the screen's.
No.	compound	AID923	A647 fluor	Resorufin fluor	A488 fluor	TSHR ag
1	COc1ccc(N2C(=O)CN=C2Nc2nc(C)cc(C)n2)cc1	x	3.41e-08	i	i	x
2	C=CCN1C(=O)NC2(CCCCC2)C1=O	0.1%	x	x	x	4.3%
3	CCCCCOC(=O)C1[C@H]2C(=O)N(Cc3cccs3)C[C@]23C=C[C@H]1O3 (stereo partly drawn)	-1.0%	1.3e-09	i	i	-4.9%
4	NS(=O)(=O)c1ccc(NC(=O)CSC2CCCCC2)cc1	-0.2%	2.4e-08	i	i	-0.3%
5	Cc1oc(C(=O)O)cc1COc1ccccc1Cl	-0.7%	9.3e-09	i	i	13.7%
6	CCOC(=O)CCC(NC(=O)c1ccc(NCN2C(=O)c3ccccc3C2=O)cc1)C(=O)OCC (stereo not drawn)	1.8%	x	x	x	u
7	COc1ccc(-c2csc3nc(C)n(-n4cccc4)c(=O)c23)cc1	-0.1%	1e-09	i	i	u
8	O=S1(=O)CC(N2CCCCC2)C(N2CCCCC2)C1 (stereo not drawn)	1.6%	2.47e-08	i	i	0.7%
9	Cc1c(NC(=O)c2coc(=O)c(Br)c2)c(=O)n(-c2ccccc2)n1C	x	3.58e-08	i	i	x
10	C=CCn1c(Cc2csc(N)n2)nnc1SCc1ccc(C(=O)OC)cc1	0.7%	1.78e-08	i	i	-0.2%
11	CO[C@@H]1COC(=O)[C@H](CCSC)NC(=O)C/C=C\[C@@H](C)COC(=O)[C@@H]2CCCN2C(=O)C/C=C\[C@H]1C	6.3%[11.5 µM]	x	x	x	-6.9%[11.4 µM]
12	Cc1ccc2cc(CN(CCN3CCOCC3)C(=O)NCc3ccccc3)c(=O)[nH]c2c1C	1.2%	1e-09	i	i	15.0%
13	COc1ccc(NS(=O)(=O)c2cc(C)ccc2OC)cc1OC	1.1%	4.5e-09	i	i	-0.9%
14	O=C(O)c1cc(=O)c2c(OCC(O)COc3cccc4oc(C(=O)O)cc(=O)c34)cccc2o1	-1.9%	1e-09&8e-09	i	i	2.0%[25.6 µM]
15	Cc1ccc(CS(=O)(=O)CCC(=O)NCCCOC(C)C)cc1	-0.7%	4.44e-08	i	i	-7.1%
16	COc1cc(C(=O)Nc2cc(C)c(OCC(=O)N3CCOCC3)c(C)c2)cc(OC)c1OC	0.0%	x	x	x	4.9%
17	O=C(NCC(=O)N(CCN1CCOCC1)C(C(=O)NC1CCCC1)c1cccnc1)c1cccs1 (stereo not drawn)	-0.8%	1e-09	i	i	-3.1%
18	Cc1c(C(=O)N2CCN(c3ccccn3)CC2)sc2ncnc(N3CCN(c4ccccc4)CC3)c12	-1.5%	5.4e-09	i	i	u
19	O=C(Cc1ccc(Cl)cc1)NCC(=O)N1CCCC1	-0.3%	1e-09	i	i	4.5%
20	Cn1c(SCC(=O)Nc2nccs2)nnc1C12CC3CC(CC(C3)C1)C2	-0.9%	2.06e-08	i	i	17.9%
21	Cc1ccc(S(=O)(=O)N[C@H]2COC(=O)[C@H](C)COC(=O)[C@H](C)NC(=O)C/C=C\[C@H]2C)cc1	0.6%[11.5 µM]	x	x	x	2.5%[11.4 µM]
22	COc1ccc(C2CCCN2C(=O)Nc2cccc(C(C)=O)c2)cc1OC (stereo not drawn)	-1.9%	2.14e-08	i	i	-1.7%
23	Clc1ccc2nc(N3CCN(c4ccccc4)CC3)sc2c1	-0.3%	4.02e-08	i	i	14.7%
24	COc1ccccc1C1/C(=C(/O)c2ccccc2)C(=O)C(=O)N1CCO (stereo not drawn)	1.2%	2.44e-08	i	i	12.3%
25	O=C(Nc1ccc(Br)cc1Cl)c1cnccn1	6.7%	x	x	x	4.3%
26	COc1cc(C2C3=C(CC(C)(C)CC3=O)N(C)C(=O)N2C)cc(OC)c1OC (stereo not drawn)	-0.8%	9.8e-09	i	i	-2.7%[11.4 µM]
27	CCN(CC)CCNC(=O)c1ccc2c(=O)n(CCc3ccccc3)c(=O)[nH]c2c1	0.6%	1e-09	i	i	-1.4%
28	CN1CCN(C(=O)c2ccccc2N(Cc2ccccc2)S(C)(=O)=O)CC1	-1.0%	2.8e-09	i	i	1.5%
29	C=CCOc1c(Br)cc(CNn2nnnc2N)cc1OCC	-1.3%	4.22e-08	i	i	13.9%
30	Cc1ccc(S(=O)(=O)NCc2cccc([N+](=O)[O-])c2)cc1	-0.3%[11.5 µM]	5.16e-08	i	i	-4.9%[11.4 µM]
31	CC/C(O)=C(/C#N)c1nnc2n1CCCCC2	0.2%	1e-09	i	i	x
32	CCn1ccnc1C[C@@H]1COc2ccccc2O1	-0.2%&-0.3%	1e-09	i	i	25.7%
33	COc1ccc(NC(=O)c2cc3c(=O)n(C)c4ccccc4c3n2C)cc1OC	1.9%	x	x	x	-21.6%
34	COc1ccccc1N1CCN(C(=O)c2cc(-c3ccc(Cl)cc3)on2)CC1	-2.3%	3.22e-08	i	i	2.8%
35	CC1CCN(S(=O)(=O)c2ccc(F)c(C(=O)O)c2)CC1	1.3%	1.5e-08	i	i	6.3%
36	Cc1c(Br)c(C(F)(F)F)nn1CC(=O)NCC1CCCO1 (stereo not drawn)	-1.3%	x	x	x	20.5%
37	Cc1csc(NC(=O)CSc2nc(C(C)C)nc3c2c(=O)n(C)c(=O)n3C)n1	-3.5%	x	x	x	13.3%
38	CCN1CCN(C(c2cccs2)C(C)NC(=O)c2ccccc2OC)CC1 (stereo not drawn)	-1.5%	x	x	x	11.2%
39	CCOCCCNC(=O)C1CCC(CNS(=O)(=O)c2cccc3nsnc23)CC1 (stereo not drawn)	0.0%	4.26e-08	i	i	-1.1%[11.4 µM]
40	COc1ccc(CN2CCN(S(=O)(=O)c3ccccc3)CC2)c(OC)c1	0.3%	9.2e-09	i	i	5.9%
41	O=C(CN1CCN(S(=O)(=O)c2ccccc2)CC1)Nc1cccc(C(F)(F)F)c1	-0.8%	2.6e-09	i	i	14.5%
42	OC[C@@H](O)CNc1ncnc2ccccc12	-0.1%[11.5 µM]	1.67e-08	i	i	1.5%[11.4 µM]
43	CCCc1cc(=O)n2[nH]c(-c3ccc(Br)cc3)cc2n1	3.3%	2e-08	i	i	2.3%
44	Cc1cc(C)nc(SCCn2c(N3CCC(C)CC3)nc3c2c(=O)n(C)c(=O)n3C)n1	0.0%	4.46e-08	i	i	0.2%
45	CC(C)NC(=O)N1CCC2(CC1)CCN(C(=O)c1ccncc1)CC2	1.2%	1e-09	i	i	4.2%
46	Cc1cccc(Cn2c(C(C)O)nc3ccccc32)c1 (stereo not drawn)	2.3%	4.1e-08	i	i	u
47	CCC(=O)N1CCc2cc(S(=O)(=O)NCCC(=O)N3CCN(Cc4ccccc4)CC3)ccc21	-2.0%	3.85e-08	i	i	0.4%
48	Cc1noc(/C=C/N(C)C)c1S(=O)(=O)N1CCN(c2ccccc2)CC1	1.7%	x	x	x	-2.8%
49	CCCN1C2=NCCN2c2cc(C)c(C)cc21	-0.3%	1e-09	i	i	u
50	Nn1cnnc1SC1CCCCC1NS(=O)(=O)c1ccccc1 (stereo not drawn)	-1.2%	3.6e-09	i	i	4.5%

# More records.
No.	compound	AID923	A647 fluor	Resorufin fluor	A488 fluor	TSHR ag
51	CCOC(=O)C1CCCN(S(=O)(=O)c2ccc(OC)c3ccccc23)C1 (stereo not drawn)	1.4%	3.91e-08	i	i	x
52	Cc1nc(NCc2ccco2)c2c3c(sc2n1)CCC3	3.3%	1.44e-08	i	i	u
53	O=C(Nc1cc(=O)c2ccccc2o1)N1CCOCC1	-1.0%	x	x	x	5.8%
54	COC(=O)c1ccc(C(/C=C/[C@@H](C)C(=O)N[C@H](C)CO)NC(=O)OCc2ccccc2)cc1 (stereo partly drawn)	1.3%	x	x	x	11.8%
55	O=C(O)/C(=C\c1ccc(O)cc1)c1cccc2ccccc12	1.2%[11.5 µM]	1.76e-08	i	i	-4.3%[11.4 µM]
56	CC(C)(CO[C@H]1C[C@H]2CC[C@@]1(C)C2(C)C)[N+](=O)[O-]	3.8%[11.5 µM]	5.97e-08	i	i	2.3%[11.4 µM]
57	Cc1cccc(NC(=O)CN(C)S(=O)(=O)c2cccc3cccnc23)c1	-2.2%	x	x	x	9.7%
58	Cc1ccc(-n2c(O)cnc2Nc2nc(C)cc(C)n2)cc1	0.5%	2.94e-08	i	i	-5.4%
59	O=c1cc(CSc2nnc(COc3ccc(Cl)cc3)o2)c2ccccc2[nH]1	1.6%	1.97e-08	i	i	u
60	CCOCC(=O)Nc1cc(-c2cn3cccnc3n2)ccc1C	2.6%	2.41e-08	i	i	1.0%

# Nos. 45–59 of the list above:
No.	compound	AID923	A647 fluor	Resorufin fluor	A488 fluor	TSHR ag
45	CC(C)NC(=O)N1CCC2(CC1)CCN(C(=O)c1ccncc1)CC2	1.2%	1e-09	i	i	4.2%
46	Cc1cccc(Cn2c(C(C)O)nc3ccccc32)c1 (stereo not drawn)	2.3%	4.1e-08	i	i	u
47	CCC(=O)N1CCc2cc(S(=O)(=O)NCCC(=O)N3CCN(Cc4ccccc4)CC3)ccc21	-2.0%	3.85e-08	i	i	0.4%
48	Cc1noc(/C=C/N(C)C)c1S(=O)(=O)N1CCN(c2ccccc2)CC1	1.7%	x	x	x	-2.8%
49	CCCN1C2=NCCN2c2cc(C)c(C)cc21	-0.3%	1e-09	i	i	u
50	Nn1cnnc1SC1CCCCC1NS(=O)(=O)c1ccccc1 (stereo not drawn)	-1.2%	3.6e-09	i	i	4.5%
51	CCOC(=O)C1CCCN(S(=O)(=O)c2ccc(OC)c3ccccc23)C1 (stereo not drawn)	1.4%	3.91e-08	i	i	x
52	Cc1nc(NCc2ccco2)c2c3c(sc2n1)CCC3	3.3%	1.44e-08	i	i	u
53	O=C(Nc1cc(=O)c2ccccc2o1)N1CCOCC1	-1.0%	x	x	x	5.8%
54	COC(=O)c1ccc(C(/C=C/[C@@H](C)C(=O)N[C@H](C)CO)NC(=O)OCc2ccccc2)cc1 (stereo partly drawn)	1.3%	x	x	x	11.8%
55	O=C(O)/C(=C\c1ccc(O)cc1)c1cccc2ccccc12	1.2%[11.5 µM]	1.76e-08	i	i	-4.3%[11.4 µM]
56	CC(C)(CO[C@H]1C[C@H]2CC[C@@]1(C)C2(C)C)[N+](=O)[O-]	3.8%[11.5 µM]	5.97e-08	i	i	2.3%[11.4 µM]
57	Cc1cccc(NC(=O)CN(C)S(=O)(=O)c2cccc3cccnc23)c1	-2.2%	x	x	x	9.7%
58	Cc1ccc(-n2c(O)cnc2Nc2nc(C)cc(C)n2)cc1	0.5%	2.94e-08	i	i	-5.4%
59	O=c1cc(CSc2nnc(COc3ccc(Cl)cc3)o2)c2ccccc2[nH]1	1.6%	1.97e-08	i	i	u

# Following part:
No.	compound	AID923	A647 fluor	Resorufin fluor	A488 fluor	TSHR ag
61	COCCSc1ccccc1C(=O)Nc1ccncc1	0.0%	1e-09	i	i	-4.3%
62	Cc1cccc(-c2nnc3n2N=C(c2ccccc2)CS3)c1	x	3.45e-08	i	i	x
63	Cc1cc2c(c(=O)n1CCc1ccccc1)C(C(C)C)C(C#N)=C(N)O2 (stereo not drawn)	-0.2%	5.1e-09	i	i	14.3%
64	O=C(NCc1ccccn1)c1coc(=O)c(Br)c1	x	3.11e-08	i	i	x
65	CCC(C)(C)NC(=O)C(c1ccc(F)cc1)N(Cc1ccco1)C(=O)c1cnccn1 (stereo not drawn)	-0.6%	2.2e-09	i	i	u
66	O=c1cnc2cncnc2n1Cc1ccc(F)cc1	2.0%	1.55e-08	i	i	u
67	O=C(COC(=O)C1CCCN1C(=O)c1cccs1)Nc1ccc2c(c1)OCO2 (stereo not drawn)	-1.0%	3.03e-08	i	i	3.2%
